UUG fidelity: yeast start codon fidelity modulation. S. cerevisiae UUG-firefly luciferase reporter, luminescence/redox ratio. activity score, % at 18.7 µM. 350,000 compounds, 0.13% hits. AID 602363;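 active = replicate mean at a twofold rise or more, about +100% in these data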;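 note: firefly luciferase made from a UUG start codon reports start codon fidelity; reporter light over untreated wells divided by growth signal over untreated wells; some hits fall short of that in this replicate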
Env fusion inh: inhibitors of HIV Env-mediated cell fusion | HeLa-JRFL Env/CEM21 cell fusion, luciferase | inhibition, % at 12.3 µM | 360,000 compounds, 1.1% hits;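 active = mean replicate inhibition score of at least 50 and every replicate individually at or above 50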;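 note: 0% = plate neutral controls and 100% = maraviroc near 300 nM; one replicate is shown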
* hit, by the source's call; [ ] = another dose, or the depositor's remark. Not all compounds are listed; count on the stated rates, not on these rows.

UUG fidelity	Env fusion inh	smiles
-9.5	6.9[16.7 µM]	C[C@H]1CN([C@@H](C)CO)C(=O)c2cc(C3=CCCC3)cnc2O[C@@H]1CN(C)C(=O)c1cccnc1
-4.8	6.1[16.7 µM]	C[C@@H]1CCCCO[C@@H](CN(C)CC2CC2)[C@@H](C)CN([C@H](C)CO)C(=O)c2cc(NS(=O)(=O)c3ccc(Cl)cc3)ccc2O1
-20.3	-10.2[16.7 µM]	Cc1noc(C)c1NC(=O)N(C)C[C@@H]1Oc2ccc(NS(=O)(=O)c3ccccc3)cc2C(=O)N([C@H](C)CO)C[C@H]1C
-8.8	-58.1[16.7 µM]	C[C@@H]1CN([C@H](C)CO)S(=O)(=O)c2ccc(-c3ccncc3)cc2O[C@@H]1CN(C)C(=O)Nc1ccc(F)cc1
-8.3	8.0[16.7 µM]	CCc1csc(N2[C@H](C#N)[C@H](c3ccc(C4=CCCC4)cc3)[C@@H]2CO)n1
7.3	0.6[16.7 µM]	C[C@@H]1CN([C@@H](C)CO)C(=O)c2cc(C#Cc3cccc(F)c3)cnc2O[C@H]1CN(C)CC1CCCC1
-7.4	5.3[16.7 µM]	C[C@H]1CN([C@@H](C)CO)C(=O)c2cc(-c3ccccc3F)cnc2O[C@@H]1CN(C)C(=O)C1CC1
5.7	-4.5[16.7 µM]	COc1ccc(S(=O)(=O)N2CCN(Cc3cccc(OCCO)c3)CC2)cc1
-26.0	5.9[16.7 µM]	O=C(CC1CC1)N[C@@H]1CC[C@H](CCNS(=O)(=O)c2ccc(Cl)cc2)O[C@@H]1CO
2.3	2.9[16.7 µM]	C[C@@H]1CCCCO[C@@H](CN(C)Cc2ccncc2)[C@H](C)CN([C@@H](C)CO)C(=O)c2cc(NC(=O)Nc3ccc(C(F)(F)F)cc3)ccc2O1
-11.0	-2.3[16.7 µM]	C[C@@H]1CN([C@@H](C)CO)C(=O)c2cc(-c3ccncc3)cnc2O[C@H]1CN(C)Cc1cccnc1
-16.9	6.4[16.7 µM]	C[C@@H]1CCCCO[C@H](CN(C)Cc2ccccc2)[C@@H](C)CN([C@H](C)CO)C(=O)c2cc(N(C)C)ccc2O1
-6.4	-9.7[16.7 µM]	C/C=C/c1ccc2c(c1)O[C@@H](CN(C)C(=O)CN(C)C)[C@@H](C)CN([C@@H](C)CO)S2(=O)=O
6.7	34.6[16.7 µM]	CCCN(C)C[C@@H]1Oc2cc(C#Cc3cccc(F)c3)ccc2S(=O)(=O)N([C@H](C)CO)C[C@@H]1C
4.1	14.4[16.7 µM]	Cc1ccc(S(=O)(=O)Nc2ccc3c(c2)C(=O)N([C@@H](C)CO)C[C@@H](C)[C@H](CN(C)S(=O)(=O)c2ccc(C)cc2)O3)cc1
-15.4	4.8[16.7 µM]	O=C(C[C@@H]1CC[C@@H](NC(=O)Nc2cc(F)ccc2F)[C@@H](CO)O1)NCc1ccccn1
33.0	-37.6[16.7 µM]	C[C@@H]1CCCCO[C@H](CN(C)Cc2ccc3c(c2)OCO3)[C@H](C)CN([C@@H](C)CO)C(=O)c2cc(NS(=O)(=O)c3ccc(Cl)cc3)ccc2O1
-10.2	5.3[16.7 µM]	COC(=O)C[C@@H]1CC[C@H]2[C@H](COc3ccc(NC(=O)NC(C)C)cc3C(=O)N2C)O1
18.8	4.3[16.7 µM]	COCC(=O)N(C)C[C@H]1Oc2ncc(C#Cc3ccc(F)cc3)cc2C(=O)N([C@@H](C)CO)C[C@H]1C
1.5	4.9[16.7 µM]	Cc1noc(C)c1NC(=O)N(C)C[C@H]1Oc2ncc(C#CC3CCCCC3)cc2C(=O)N([C@@H](C)CO)C[C@@H]1C
10.7	5.2[16.7 µM]	COc1ccc(NC(=O)N(C)C[C@H]2Oc3c(NC(=O)Nc4ccccc4)cccc3C(=O)N([C@H](C)CO)C[C@H]2C)cc1
10.6	-15.4[16.7 µM]	C[C@H](O)C#Cc1ccc2c(c1)O[C@@H](CN(C)C(=O)c1ccccc1)[C@H](C)CN([C@H](C)CO)S2(=O)=O
3.1	9.2[16.7 µM]	CC(C)NC(=O)N(C)C[C@@H]1Oc2c(NC(=O)c3nc4ccccc4s3)cccc2C(=O)N([C@H](C)CO)C[C@H]1C
-10.6	1.9[16.7 µM]	COc1cccc(CNC(=O)C[C@H]2CC[C@H](NS(=O)(=O)c3ccccc3OC)[C@@H](CO)O2)c1
24.6	-56.9[16.7 µM]	COc1ccc(CN(C)C[C@H]2OCCCC[C@@H](C)Oc3ccc(NC(=O)NC4CCCCC4)cc3C(=O)N([C@@H](C)CO)C[C@@H]2C)cc1

Compounds above containing a Cl atom:
UUG fidelity	Env fusion inh	smiles
-4.8	6.1[16.7 µM]	C[C@@H]1CCCCO[C@@H](CN(C)CC2CC2)[C@@H](C)CN([C@H](C)CO)C(=O)c2cc(NS(=O)(=O)c3ccc(Cl)cc3)ccc2O1
-26.0	5.9[16.7 µM]	O=C(CC1CC1)N[C@@H]1CC[C@H](CCNS(=O)(=O)c2ccc(Cl)cc2)O[C@@H]1CO
33.0	-37.6[16.7 µM]	C[C@@H]1CCCCO[C@H](CN(C)Cc2ccc3c(c2)OCO3)[C@H](C)CN([C@@H](C)CO)C(=O)c2cc(NS(=O)(=O)c3ccc(Cl)cc3)ccc2O1

Further results follow.
UUG fidelity	Env fusion inh	smiles
11.3	-21.3[16.7 µM]	C[C@@H]1CN([C@H](C)CO)C(=O)c2cc(C#Cc3cccc(F)c3)cnc2O[C@H]1CN(C)C(=O)C1CCC1
-13.0	89.3*[16.7 µM]	COc1cccc(-c2cnc3c(c2)C(=O)N([C@H](C)CO)C[C@H](C)[C@H](CN(C)C(=O)Nc2cccc4ccccc24)O3)c1
-6.4	15.4[16.7 µM]	CCCNC(=O)C[C@H]1CC[C@@H]2[C@@H](COc3ccc(NC(=O)c4ccc(Cl)cc4)cc3C(=O)N2C)O1
-6.8	5.7[16.7 µM]	CC(C)NC(=O)N(C)C[C@@H]1Oc2ccc(NC(=O)Nc3ccccc3)cc2C(=O)N([C@@H](C)CO)C[C@@H]1C
17.3	13.5[16.7 µM]	C[C@@H]1CN([C@H](C)CO)C(=O)c2cc(NS(=O)(=O)c3ccc(F)cc3)ccc2O[C@@H](C)CCCCO[C@@H]1CN(C)C(=O)Cc1ccccc1
-3.9	6.5[16.7 µM]	C[C@@H]1CN([C@H](C)CO)C(=O)c2cc(NC(=O)CCC(F)(F)F)ccc2O[C@@H]1CN(C)CC1CCCCC1
3.6	-3.5[16.7 µM]	C[C@@H]1CCCCO[C@H](CN(C)S(=O)(=O)c2ccc(F)cc2)[C@@H](C)CN([C@H](C)CO)C(=O)c2cc(NC(=O)Nc3ccc4c(c3)OCO4)ccc2O1
-8.2	-6.5[16.7 µM]	Cc1noc(C)c1NC(=O)Nc1ccc2c(c1)CC(=O)N([C@@H](C)CO)C[C@H](C)[C@H](CN(C)S(C)(=O)=O)O2
8.9	-7.5[16.7 µM]	O=C(CC1CC1)Nc1ccc2c(c1)[C@@H]1C[C@H](CC(=O)N3CCCCC3)O[C@@H](CO)[C@@H]1O2
5.2	5.2[16.7 µM]	Cc1noc(C)c1NC(=O)Nc1ccc2c(c1)CC(=O)N([C@H](C)CO)C[C@H](C)[C@H](CN(C)S(=O)(=O)c1c(C)noc1C)O2
-11.0	2.9[16.7 µM]	COc1cccc(S(=O)(=O)N[C@H]2CC[C@H](CC(=O)NCc3ccncc3)O[C@H]2CO)c1
-10.7	-15.5[16.7 µM]	C[C@@H]1CN([C@H](C)CO)C(=O)c2cccc(NC(=O)NC3CCCCC3)c2O[C@@H]1CN(C)C(=O)Nc1ccc(F)cc1
-1.4	-43.7[16.7 µM]	C[C@@H]1CCCCO[C@H](CN(C)Cc2ccncc2)[C@@H](C)CN([C@@H](C)CO)C(=O)c2cc(NC(=O)c3ccccc3)ccc2O1
28.4	10.5[16.7 µM]	C[C@@H]1CN([C@@H](C)CO)C(=O)c2cc(NC(=O)Nc3cccc4ccccc34)ccc2O[C@@H](C)CCCCO[C@H]1CN(C)Cc1ccccc1
-3.6	5.5[16.7 µM]	COc1ccc(C#Cc2cnc3c(c2)C(=O)N([C@@H](C)CO)C[C@@H](C)[C@H](CN(C)C(=O)CN(C)C)O3)cc1
0.0	7.2[16.7 µM]	C[C@@H]1CN([C@H](C)CO)C(=O)c2cc(C#CC3(O)CCCC3)cnc2O[C@H]1CN(C)C(=O)Cc1ccncc1
-3.7	-1.2[16.7 µM]	CO[C@H]1CN(C)C(=O)c2cc(NS(=O)(=O)c3ccc(C)cc3)ccc2OC[C@@H](C)NC[C@H]1C
-6.9	-12.9[16.7 µM]	COc1ccccc1S(=O)(=O)N[C@@H]1C=C[C@H](CC(=O)NCc2cccc(F)c2)O[C@H]1CO
2.1	1.6[16.7 µM]	C[C@H](NC(=O)C[C@H]1C=C[C@H](NC(=O)C2CCOCC2)[C@@H](CO)O1)c1ccccc1
-0.5	-8.4[16.7 µM]	C[C@H](CO)N1C[C@H](C)[C@H](CN(C)Cc2ccc(Cl)c(Cl)c2)Oc2c(NC(=O)c3ccncc3)cccc2C1=O
-7.3	1.2[16.7 µM]	CN1CCN(C(=O)C[C@@H]2CC[C@@H]3[C@H](COc4ccc(NC(=O)C5CCCCC5)cc4C(=O)N3C)O2)CC1
-11.5	12.1[16.7 µM]	CC(C)NC(=O)N(C)C[C@@H]1Oc2ccc(NC(=O)c3ccncc3)cc2C(=O)N([C@H](C)CO)C[C@@H]1C
-11.2	11.8[16.7 µM]	Cc1noc(C)c1NC(=O)N[C@H]1C=C[C@@H](CC(=O)Nc2ccccc2)O[C@@H]1CO
8.9	8.9[16.7 µM]	C[C@@H]1CN([C@@H](C)CO)C(=O)c2cc(C#Cc3ccccc3F)cnc2O[C@@H]1CN(C)C(=O)C1CCC1
4.1	3.1[16.7 µM]	C[C@@H]1CN([C@@H](C)CO)C(=O)c2cccc(NC(=O)C3CCOCC3)c2O[C@H]1CN(C)C(=O)Nc1cccc2ccccc12

An excerpt from above in order of their number in UUG fidelity, largest number first:
UUG fidelity	Env fusion inh	smiles
8.9	-7.5[16.7 µM]	O=C(CC1CC1)Nc1ccc2c(c1)[C@@H]1C[C@H](CC(=O)N3CCCCC3)O[C@@H](CO)[C@@H]1O2
3.6	-3.5[16.7 µM]	C[C@@H]1CCCCO[C@H](CN(C)S(=O)(=O)c2ccc(F)cc2)[C@@H](C)CN([C@H](C)CO)C(=O)c2cc(NC(=O)Nc3ccc4c(c3)OCO4)ccc2O1
-3.9	6.5[16.7 µM]	C[C@@H]1CN([C@H](C)CO)C(=O)c2cc(NC(=O)CCC(F)(F)F)ccc2O[C@@H]1CN(C)CC1CCCCC1
-8.2	-6.5[16.7 µM]	Cc1noc(C)c1NC(=O)Nc1ccc2c(c1)CC(=O)N([C@@H](C)CO)C[C@H](C)[C@H](CN(C)S(C)(=O)=O)O2

Next compounds
UUG fidelity	Env fusion inh	smiles
17.6	6.9[16.7 µM]	O=C(C[C@@H]1CC[C@@H]2[C@H](COC[C@H](O)CN2C(=O)c2cccnc2)O1)NCc1ccc(Cl)cc1
-16.2	41.7[16.7 µM]	C[C@@H]1CN([C@@H](C)CO)S(=O)(=O)c2ccc(C#Cc3ccncc3)cc2O[C@@H]1CN(C)S(=O)(=O)c1ccc(F)cc1
46.7	-16.5[16.7 µM]	C[C@@H]1CCCCO[C@@H](CN(C)C(=O)c2ccccc2)[C@H](C)CN([C@H](C)CO)C(=O)c2cc(NS(=O)(=O)c3ccccc3)ccc2O1
3.4	25.9[16.7 µM]	COc1ccc(NC(=O)Nc2ccc3c(c2)C(=O)N([C@@H](C)CO)C[C@@H](C)[C@H](CN(C)Cc2ccncc2)OCCCC[C@H](C)O3)cc1
3.9	10.4[16.7 µM]	COC1(C)CN(Cc2ccccc2Br)[C@H](/C=C/c2ccccc2)[C@H](Cc2ccccc2)O1 (some centres not stated)
-1.5	6.9[16.7 µM]	COc1ccc(S(=O)(=O)Nc2ccc3c(c2)OC[C@H](C)NC[C@H](C)[C@H](OC)CN(C)C3=O)cc1
1.4	11.4[16.7 µM]	O=C(CCN1CCCCC1)N[C@H]1CC[C@H](CCNS(=O)(=O)c2ccc(Cl)cc2)O[C@@H]1CO
-14.7	8.7[16.7 µM]	O=C(C[C@@H]1C[C@@H]2c3cc(NC(=O)CC4CC4)ccc3O[C@@H]2[C@@H](CO)O1)NCCN1CCCCC1
-16.3	-1.6[16.7 µM]	COc1ccc(CNC(=O)C[C@H]2C=C[C@@H](NC(=O)CN(C)C)[C@H](CO)O2)cc1
5.6	-10.3[16.7 µM]	C[C@H]1CN([C@@H](C)CO)C(=O)c2cc(Br)cnc2O[C@H]1CN(C)C(=O)c1ccccc1
22.5	95.5*[16.7 µM]	C[C@H](CO)N1C[C@H](C)[C@H](CN(C)S(=O)(=O)c2cccs2)Oc2ccc(NC(=O)Cc3ccccc3)cc2CC1=O
0.3	-17.1[16.7 µM]	COc1ccc(CN(C)C[C@@H]2Oc3c(NS(=O)(=O)c4ccccc4)cccc3C(=O)N([C@H](C)CO)C[C@@H]2C)cc1
16.3	12.8[16.7 µM]	C[C@H](CO)N1C[C@H](C)[C@H](CN(C)CC2CCCCC2)OCCCC[C@H](C)Oc2ccc(NS(=O)(=O)c3ccc(F)cc3)cc2C1=O
3.7	0.6[16.7 µM]	C[C@@H]1CCCCO[C@H](CN(C)C(=O)Nc2ccc3c(c2)OCO3)[C@H](C)CN([C@H](C)CO)C(=O)c2cc(N(C)C)ccc2O1
12.0	0.4[16.7 µM]	CC(C)CC#Cc1cnc2c(c1)C(=O)N([C@H](C)CO)C[C@H](C)[C@@H](CN(C)Cc1cncnc1)O2
10.7	43.6[16.7 µM]	COc1ccc(S(=O)(=O)N(C)C[C@@H]2OCCCC[C@@H](C)Oc3ccc(NC(=O)Nc4ccccc4)cc3C(=O)N([C@@H](C)CO)C[C@@H]2C)cc1
-12.3	19.3[16.7 µM]	CCNC(=O)Nc1ccc2c(c1)C(=O)N(C)[C@@H]1CC[C@@H](CC(=O)NCCN3CCCC3)O[C@@H]1CO2
